# Source: PubChem BioAssay
# Cruzain inh noDet: blocks cruzain activity in detergent-free assay | P25779 | 200,000 tested, 2.3% active | Potency, µM, without a hit: max response, negative = inhibition, actives largely listed as inhibitors | AID 1476 | purified cruzain, Z-FR-AMC fluorescence, no detergent;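 further: plate controls were enzyme without inhibitor for no effect and buffer without enzyme for full effect; nearly all actives have a fitted effect of over 40% in size; top concentration of the series not given in the record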
# Target sequence (P25779 123-467 limits assumed): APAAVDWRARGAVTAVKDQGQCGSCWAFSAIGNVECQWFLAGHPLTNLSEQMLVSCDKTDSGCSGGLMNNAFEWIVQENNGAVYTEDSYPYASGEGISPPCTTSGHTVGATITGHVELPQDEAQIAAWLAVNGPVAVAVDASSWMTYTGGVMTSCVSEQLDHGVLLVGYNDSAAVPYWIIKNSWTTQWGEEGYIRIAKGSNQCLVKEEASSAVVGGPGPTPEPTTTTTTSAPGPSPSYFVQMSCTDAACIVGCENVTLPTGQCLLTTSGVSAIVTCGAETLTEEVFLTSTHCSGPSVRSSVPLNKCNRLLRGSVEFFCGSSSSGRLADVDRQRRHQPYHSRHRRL
#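 Detergent-free condition (0.00005% Triton X-100) in acetate buffer pH 5.5 with DTT. 1.5 nM enzyme and compound were pre-mixed 15 min, then 2 uM Z-FR-AMC substrate added; reaction progress from fluorescence change between first and third reads (60 s).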
# Cruzain inh Det: cruzain (T. cruzi) inhibition with detergent | P25779 | purified cruzain, Z-FR-AMC fluorescence, 0.01% Triton | Potency, µM, without a hit: max response, negative = inhibition, hits mostly inhibitors | 200,000 tested, 0.43% active;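 further: plate controls were neutral wells for no effect and buffer without enzyme for full effect; nearly all actives have a fitted effect of over 40% in size; top concentration of the series not given in the record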
#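 Steps: dispense cruzain (1.5 nM final) in acetate buffer pH 5.5 with DTT and 0.01% Triton X-100; pin-transfer compounds; incubate 15 min RT; add Z-FR-AMC (2 uM final); read fluorescence every 30 s, using the 60 s intensity change.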
# RE007 growth inh: less growth of the S. pombe RE007 Vpr strain. S. pombe RE007 Vpr strain, BacTiter-Glo ATP luminescence, 24 h; control for the full effect not named in the record. Potency, µM (doses to about 92.2 µM), without a hit: at the highest dose activity change, negative = less growth. 360,000 tested, 0.21% active; active = well fitted falling curve with a large enough effect; inconclusive = small, poorly fitted or top-dose-only effect; inactive = no such curve, though single readings can be large or run the other way;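 further: on the % scale 0 is the no-effect control and ±100 the full control effect; nearly all actives have a fitted effect of over 50% in size; the assay follows cell death caused by Vpr and the record does not say whether a fall means rescue or toxicity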
#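 Fission yeast RE007 carrying one integrated HIV-1 vpr copy, seeded at OD 0.01 in PMG+AL medium with 23 nL pinned compound. Grown 24 h at 30 degrees; viability read by BacTiter-Glo luminescence after 5 min.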
# MARV entry inh: inhibitors of Marburg virus binding or cell entry | Marburg virus pseudotyped entry inhibition, cell reporter; control for the full effect not named in the record; about a third of the inactives were read at about 46 µM | Potency, µM (series often up to 37.8 µM), for the others: at the highest dose activity change, negative = inhibition, hits mostly inhibitors | 300,000 tested, 1.8% active | AID 540276; active = well fitted inhibition curve with a large enough effect; inconclusive = small, poorly fitted or top-dose-only effect, or effect the other way; inactive = flat fitted curve, though single readings scatter; tested in HEK293 cells; about a fifth of its hits are not listed in these tables; further: on the % scale 0 is the no-effect control and ±100 the full control effect; luciferase read-out
# SARS PLpro yeast: blocks SARS-CoV papain-like protease in a yeast assay. S. cerevisiae expressing SARS-CoV PLpro, growth rescue; control for the full effect not named in the record. Potency, µM (series often up to 32.9 µM), inactives show at the top dose activity, positive = growth rescue. 330,000 tested, 0.19% active. AID 485353; active means well fitted rising curve with a large enough effect; inconclusive means small, poorly fitted or top-dose-only effect; inactive means no such curve, though single readings can be large or run the other way; further: 0% is about no effect; nearly all actives have a fitted effect of over 55% in size; growth read by luminescence after 48 h
# NS1 function inh: inhibitors of influenza NS1 protein function; S. cerevisiae slowed by influenza A NS1, growth recovery by OD600; Potency, µM (titrated, usually from 46.1 µM), for inactives: at the highest dose activity, positive = more growth; 270,000 tested, 0.4% active; AID 2326; active means well fitted rising curve with a large enough effect; inconclusive means small, poorly fitted or top-dose-only effect; inactive means no such curve, though single readings can be large or run the other way; further: nearly all actives have a fitted effect of over 50% in size
#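 Read-out: OD600 growth recovery of NS1-expressing budding yeast. Cells grown overnight at 30C in -URA glucose medium, washed, resuspended and diluted 1:100 in 2% galactose assay medium, pH 6.0. Same strain lacking NS1 served as positive control.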
# Lassa entry inh: Lassa virus entry inhibition; Lassa virus pseudotype entry inhibition, cell reporter; control for the full effect not named in the record; Potency, µM (doses to about 37.9 µM), without a hit: top-dose activity change, negative = inhibition, usual class: inhibitors; 300,000 tested, 1.2% active; active means well fitted inhibition curve with a large enough effect; inconclusive means small, poorly fitted or top-dose-only effect, or effect the other way; inactive means flat fitted curve, though single readings scatter; tested in HEK293 cells; further: on the % scale 0 is the no-effect control and ±100 the full control effect; nearly all actives have a fitted effect of over 50% in size; luciferase read-out
# 2A StopGo: lowers the luciferase signal of an FMDV 2A StopGo reporter; AID 1159524; human cells with a luciferase reporter of 2A StopGo recoding; control for the full effect not named in the record; 410,000 tested, 1.2% active; Potency, µM (series often up to 57.9 µM), inactives show top-dose signal change, negative = less light; active = well fitted falling curve with a large enough effect; inconclusive = small, poorly fitted or top-dose-only effect; inactive = no such curve, though single readings can be large or run the other way; tested in HEK293T cells; further: on the % scale 0 is the no-effect control and ±100 the full control effect; nearly all actives have a fitted effect of over 45% in size; luciferase light after 4 h
# * = called active by the depositor; u = inconclusive; x = not tested or not shown; & = joins results of further samples; [ ] = dose if it differs, or a comment. Unless noted, the call rests on the fitted dose curve; in most records, active means well fitted curve in the direction sought with a large enough effect; inconclusive means small, poorly fitted or top-dose-only effect, or another doubt; inactive means no such curve, though single readings can be large; an effect the other way counts as inactive or inconclusive. Potency means the concentration at half of the fitted maximal effect. No enrichment for hits, and some 4.8% of all compounds hit somewhere here.
SMILES,Cruzain inh noDet,Cruzain inh Det,RE007 growth inh,MARV entry inh,SARS PLpro yeast,NS1 function inh,Lassa entry inh,2A StopGo
CC(=O)Nc1c(C)ccc(CNC(=O)COc2cc(C)ccc2C)c1C,9%,-0.1%,2%,10%,1%,13%,10%,-22%
CC(C)(C)OC(=O)N1CCC(c2c(C(=O)N3CCN(C(=O)c4ccco4)CC3)cnn2-c2cccc(F)c2)CC1,10%,0.0%,x,x,x,x,23%[46.1 µM],-14%
Cn1c(=O)c2sccc2n2c(CCC(=O)Nc3ccc(F)cc3)nnc12,5%,-0.3%,x,8%[46.1 µM],x,x,6%[46.1 µM],-19%
CCc1c(C)c2c(C)nn(-c3ccccc3)c2[nH]c1=O,-12%,-0.7%,1%,8%,0%,2%,13%,23%
COc1ccc(C)cc1NS(=O)(=O)c1ccc(NC(=O)CN(c2cc([N+](=O)[O-])ccc2C)S(C)(=O)=O)cc1,u,-5.3%,2%,3.7µM*,9%,8%,u,-13%
CC1=C/C(=C\C=C(C#N)C#N)N(C)c2ccccc21,x,x,2%,6%[46.1 µM],0%,7%,0%[46.1 µM],-14%
Cc1cc2cc3c(cc2nc1SCC(=O)O)OCCO3,-14%,2.3%,10%,14%,-42%,-52%,2%,13%
CC(C)[C@@]1(NC(=O)[C@@H]2C=C3c4cccc5[nH]cc(c45)C[C@H]3N(C)C2)O[C@@]2(O)[C@@H]3CCCN3C(=O)[C@H](Cc3ccccc3)N2C1=O,2%,-22%,x,u,-4%,u,-12%,x
COc1ccc(NS(=O)(=O)c2ccc(NC(=S)NC(=O)c3ccc(Br)cc3)cc2)nn1,2%,-6.5%,3%,6%,-13%,u,17%,6%
CCOC(=O)C1CN(c2cc3c(cc2F)c(=O)c(C(=O)O)cn3CC)OC1C(=O)OCC (stereo not given),5%,-1.8%,9%,11%&11%,5%,2%,-6%,7%
CC(=O)NS(=O)(=O)c1ccc(NC(=S)Nc2ccccc2)cc1,x,x,-5%,x,-3%,7%,x,10%
Cc1cnc(NC(=O)CSc2ncc(-c3ccccc3)n2Cc2ccco2)s1,1%,-4.4%,14%,-3%,7%,-48%,-8%,u
CCOC(=O)C1CCCN(C2CC(=O)N(c3ccc(NC(C)=O)cc3)C2=O)C1 (stereo not given),x,x,0%,u,-2%,x,19%,-14%
CCNC(=O)COC(=O)CCNC(=O)c1ccc(Cl)cc1,x,x,-10%,x,1%,-3%,x,-5%
CC1CCC(NC(=O)c2cnccn2)CC1 (stereo not given),2%,0.2%,15%,-3%,-1%,-3%,-1%,2%
CC1CC(=O)N(CC(=O)NCc2ccc(F)cc2)c2ccccc2S1(=O)=O (stereo not given),x,x,-7%,-19%[46.1 µM],1%,9%,4%[46.1 µM],1%
C[C@]12CCC3C(CC[C@H]4[C@H](O)[C@H](O)CC[C@]34C)C1CC[C@@H]2O (stereo not given in full),x,x,3%,3%[46.1 µM],x,x,-7%[46.1 µM],-4%
O=S(=O)(NCCSCc1ccc(Cl)c(Cl)c1)c1ccc2c(c1)OCCO2,x,x,8%,u,x,x,u,68%[activator]
CCOc1ncccc1C(=O)OCC(=O)Nc1nnc(-c2ccccc2)o1,x,x,-22%,-3%[46.1 µM],4%,x,0%,-3%
O=C(O)/C(=C\c1ccc(Cl)c([N+](=O)[O-])c1)c1ccc(S(=O)(=O)N2CCCCC2)s1,x,x,-2%,-7%[46.1 µM],1%,x,22%,-15%
Cc1cc(C)c(NC(=O)CCn2nnc3ccccc32)c(C)c1,x,x,11%,4%[46.1 µM],0%,1%,-13%[46.1 µM],-8%
CCCn1nc(NC(=O)c2ccncc2)c2cc3ccccc3nc21,u,-8.5%,5%,u,-8%,-107%,0%,u
COc1ccc(/C=C(/NC(=O)c2ccccc2)C(=O)N/N=C/c2ccc3c(c2)OCO3)cc1OC,u,-14%,13%,5%,4%,4%,-32%,x
CCOC(=O)[C@@H]1[C@H]2COc3ccccc3[C@H]2N2C(=O)N(c3cccc(Cl)c3)C(=O)[C@@]12C,x,x,5%,x,-4%,-43%,x,-19%
Cc1cccc(OCC(=O)Nc2ccccc2C(=O)OCc2cc(=O)n3nc(C)sc3n2)c1,22%,0.5%,x,x,x,x,14%[46.1 µM],-1%
CC(OC(=O)CNC(=O)c1ccccc1F)C(=O)Nc1nc(-c2ccccc2)cs1 (stereo not given),7.9µM*,7.9µM*,4%,u,-5%,-39%,-16%,26%
COc1cc([N+](=O)[O-])cc2cc(C(=O)N3CCCC3)c(=O)oc12,x,x,-8%,-13%[46.1 µM],-1%,-2%,-16%,-5%
Cc1c(NC(=O)c2ccc3c(c2)OCO3)c(=O)n(-c2ccccc2)n1C,-2%,-5.5%,-4%,2%,3%,1%,-2%,x
CC(C)c1ccc(-c2noc(C3CCCN(S(C)(=O)=O)C3)n2)cc1 (stereo not given),u,-4.8%,5%,-31%,-6%,10%,6%,5%
COc1cc(/C=C2/C(=O)NN(c3cccc(C)c3)C2=O)cc([N+](=O)[O-])c1O,x,x,-10%,x,0%,12%,x,10%
CCN(CC)Cc1cc(C(C)=O)ccc1OCC(C)C,-11%,3.0%,-4%,15%&15%,5%,-4%,-2%,-7%
CCn1nnc(NC(=O)C(C)Oc2ccc(Cl)cc2Cl)n1 (stereo not given),6%,16%,7%,7%,-6%,-49%,-17%,12%
Cn1c(N)c(N=Cc2ccccc2)c(=O)n(C)c1=O,x,x,-3%,9%[46.1 µM],x,x,13%[46.1 µM],14%
Cc1cccc(Nc2nc(N)nc(CC(=O)CSc3ccc(Cl)cc3)n2)c1,u,0.6%,x,-6%,17%,11%,-10%,x
CSc1nc(SC(C)C(=O)O)c2c3c(sc2n1)COC(C)(C)C3 (stereo not given),x,x,4%,-14%[46.1 µM],-2%,7%,14%[46.1 µM],-21%
COc1ccc(N2CCN(S(=O)(=O)c3ccc(Cl)c(C(F)(F)F)c3)CC2)cc1,16µM*,4.2%,-8%,-16%,0%,15%,6%,-20%
Cc1ccc(/C=C/C(=O)N2CCN(c3ccc(F)cc3)CC2)o1,-24%,-8.4%,x,-1%,-20%,-13%,9%,u
CCC(C(=O)OCC(=O)N1CCN(S(=O)(=O)c2ccc(C)cc2C)CC1)c1ccccc1 (stereo not given),x,x,-15%,u,-1%,x,u,-22%
COc1ccc(CCNC(=O)C2CCN(S(=O)(=O)N3CCCCC3)CC2)cc1OC,-3%,5.0%,-11%,0%,0%,-23%,x,-10%
CCCn1nc(Oc2nc(SC)nc(N(C)C)n2)ccc1=O,7%,-4.1%,1%,-19%&-19%,-1%,-10%,5%,4%
CCOc1ccc(/C=C/C(=O)CCC(=O)O)cc1,x,x,-16%,0%[46.1 µM],-1%,-2%,10%,33%[activator]
O=c1c2ccccc2nc(N2CCN(c3ccccc3)CC2)n1Cc1ccccc1,-26%,-4.1%,6%,3%,1%,-37%,x,u
CCOCCn1c(SCc2ccccc2)nc2c1c(=O)[nH]c(=O)n2C,x,x,-3%,x,2%,-1%,x,-10%
COc1cc(OC)c(NS(=O)(=O)c2cc(C(=O)OCC(=O)NCC3CCCO3)ccc2OC)cc1Cl (stereo not given),x,x,-8%,17%[46.1 µM],3%,x,7%,76%[activator]
CC(C)CCn1cnc2c(c1=O)c1nc3ccccc3nc1n2Cc1ccc2c(c1)OCO2,6%,-0.5%,44%,11%,0%,-45%,-2%,-6%
Cc1ccc(/C=N/NC(=O)C2(C)CC2(Br)Br)cc1 (stereo not given),x,x,-3%,17%[46.1 µM],1%,1%,11%,-10%
Cc1ccc(NNc2c(C)nc3ccccc3nc2=O)cc1,x,x,4%,-10%[46.1 µM],1%,1%,-28%,19%
Brc1ccc(-c2ncc(-c3ccccc3)cn2)cc1,u,1.9%,3%,u,3%,5%,u,-14%
CC1(C(=O)Nc2ccc3c(c2)OCCO3)CC1(Cl)Cl (stereo not given),x,x,-2%,u,6%,6%,-9%[46.1 µM],19%
O=C(c1ccc(OCc2cn3ccccc3n2)cc1)N1CCN(S(=O)(=O)c2ccccc2F)CC1,x,x,5%,u,-6%,x,0%,5%
O=C(c1cn(CCOc2ccc(Cl)cc2)c2ccccc12)C1CCCCC1,11%,-1.5%,x,u,x,x,17%[46.1 µM],-4%
COc1ccc(NS(=O)(=O)c2cccc3ccccc23)cc1,x,x,3%,u,x,x,-18%,67%[activator]
CC1CCCN(C(=O)C2CCN(S(=O)(=O)c3cccc4nsnc34)CC2)C1 (stereo not given),x,x,5%,x,6%,3%,x,-1%
Cc1ccccc1NC(=O)N1CCNC(=O)C1CC(=O)Nc1cc(Cl)ccc1Cl (stereo not given),x,x,-5%,u,0%,6%,u,-10%
Cc1c(S(=O)(=O)N2CCN(C(=O)c3ccco3)CC2)c(=O)n(C)c(=O)n1C,-2%,2.2%,2%,x,-3%,u,x,-16%
O=C(Nc1ccccc1Cl)c1csc(-c2cccnc2)n1,x,x,4%,x,-2%,-2%,x,58%[activator]
Cc1sc2ncnc(NCC3COc4ccccc4O3)c2c1C (stereo not given),-1%,-8.4%,-13%,-27%,u,-7%,-30%,u
Cc1ccc2[nH]cc(CCNC(=O)c3cccs3)c2c1,x,x,15%,2%,-3%,-7%,7%,-6%
COc1ccccc1NS(=O)(=O)c1ccc2nc(CCl)[nH]c2c1,x,x,1%,2%[46.1 µM],0%,3%,4%,-22%
COc1ccccc1N1CCN(C(=O)CN2C(=O)c3cccc4cccc(c34)C2=O)CC1,x,x,-4%,u,1%,0%,u,u
O=C(O)c1ccc(NS(=O)(=O)c2cccc3cccnc23)cc1,-6%,-2.2%,-3%,x,-1%,u,x,-12%
CCC(CC)C(=O)Oc1c(Sc2ccccc2[N+](=O)[O-])c(C)nn1C(C)(C)C,-3%,-7.6%,4%,-27%,-38%,-11%,-7%,u
CCOC(=O)NC1(Nc2ccc(Cl)cn2)Oc2ccccc2O1,-9%,-2.9%,x,x,1%,-13%,x,x
